ugtP null kill – growth inhibition of ugtP-null S. aureus, primary screen, RN4220 ugtP deletion, OD600 | 16 h; some inactives read as strong as hits | hit rate 0.54% among 330,000 | growth inhibition, % (concentration not given with the values);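 active = z-score under -3 and OD600 up to 0.15 on both plates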;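 also: plate controls were untreated wells for no effect and antibiotic for full effect; wells of about 80 µL received 100 nL stock; the first replicate is given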
Mtb hypoxia rep – PubChem AID 1159583 | fluorescence inhibition, % (no concentration beside the values) | M. tuberculosis hypoxia-regulated fluorescent reporter, fluorescence | hit rate 0.1% among 300,000;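 active = 35 to 45% if threefold the growth effect, above 45% if 1.5-fold the growth effect; inactive = the rest, general growth blockers included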;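 also: wells of about 50 µL received 100 nL stock; 0% = vehicle wells and 100% = reference inhibitor wells; whole bacteria with a GFP reporter of the hypoxia response; strong numbers were not always called active; many hits fall short of the cut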
Bead autofluor – flagged as autofluorescent in microsphere protease counterscreen. compound autofluorescence counterscreen, microsphere flow cytometry; hits give high values. fluorescence intensity (concentration not given with the values). hit rate 3.1% among 360,000. AID 624483;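 active = at least 3 SD above the mean of all compounds, about 16000 in these data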;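 also: 100 nL of 1 mM stock went into each well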
Sa RN4220 lethal – growth inhibition of S. aureus RN4220, primary screen, OD600; 16 h; inhibition, % (test concentration not listed); hit rate 0.33% among 330,000; AID 1259311, 2017;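 active = z-score of -3 or lower and OD600 up to 0.18 on both plates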;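 also: plate controls were untreated cells for no effect and reference antibiotic for full effect; stock transfer was 100 nL into about 80 µL; one replicate is shown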
BJeLR viability – MLPCN primary cell-based screen for lethality selective to Ras in HRASV12 cells | BJeLR (HRASV12) viability, CellTiter-Glo ATP luminescence, 48 h; reference of the scale not given here | inhibition, % (concentration not given with the values) | hit rate 0.17% among 300,000;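 active = replicate mean above 50%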;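 also: 50 nL library stock added to about 25 µL; numbers are from one replicate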
PrP UTR inh – inhibition of PrP 5' UTR reporter expression; cell-based PrP 5' UTR mRNA reporter, plate reader; inhibition, % (concentration not given with the values); hit rate 0.35% among 340,000;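 active = every replicate at 50% or more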;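 also: 0 = median of the neutral control wells; tested in H4 reporter cells; numbers are from one replicate; inactives centre near -14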
Mtb hypoxia rep growth – second read-out of Mtb hypoxia rep, no call of its own (marks repeat the call); growth inhibition, %; measured here: M. tuberculosis growth (absorbance);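 0% = vehicle and 100% = reference antibiotic; read after six days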
* hit, by the source's call. Hits appear at their usual frequency; overall some 3.9% were active at least once.

Results for CC1CCN(C2CC(=O)N(c3ccc(Br)cc3Br)C2=O)CC1 (stereo not drawn) ?
ugtP null kill: -2.8; Mtb hypoxia rep: 13.1; Bead autofluor: 4756; Sa RN4220 lethal: 7.4; BJeLR viability: 3.0; PrP UTR inh: -18.7; Mtb hypoxia rep growth: -3.6

Results for O=C(CN1C(=O)CCC1=O)NC(=O)NC1CCCC1 ?
ugtP null kill: 5.3; Mtb hypoxia rep: 14.7; Bead autofluor: 5826; Sa RN4220 lethal: 3.3; BJeLR viability: -4.8; PrP UTR inh: -4.6; Mtb hypoxia rep growth: 8.8

How did Cc1ccc(C)c(N2N=C(C(=O)Nc3ccc(N4CCOCC4)cc3)CCC2=O)c1 do in these assays?
ugtP null kill: 1.3; Mtb hypoxia rep: 8.6; Bead autofluor: 5310; Sa RN4220 lethal: -0.5; PrP UTR inh: -16.7; Mtb hypoxia rep growth: -3.4

Results for O=c1c2ccccc2c2ccccc2c(=O)n1Cc1ccco1 ?
ugtP null kill: 7.5; Bead autofluor: 3048; Sa RN4220 lethal: 0.6; BJeLR viability: 2.9; PrP UTR inh: -25.6

Results for COC(=O)c1c(NC(=O)C(C)(C)C)sc2c1CCN(Cc1ccccc1)C2 ?
ugtP null kill: 9.8; Mtb hypoxia rep: -4.9; Bead autofluor: 5277; Sa RN4220 lethal: -8.9; BJeLR viability: 2.3; PrP UTR inh: -4.4; Mtb hypoxia rep growth: -6.1

What do the screens show for `O=C(NCCO)C1(c2ccccc2)CCCC1`?
ugtP null kill: 6.5; Bead autofluor: 2472; Sa RN4220 lethal: 7.6; BJeLR viability: 11.0; PrP UTR inh: -21.6

Results for COc1ccc(S(=O)(=O)Nc2cccc3c2OC(CN(C)C(=O)NC(C)C)C(C)CN(C(C)CO)C3=O)cc1 (stereo not drawn) ?
ugtP null kill: -5.3; Mtb hypoxia rep: 10.9; Sa RN4220 lethal: 3.1; Mtb hypoxia rep growth: 12.5

What do the screens show for `O=C(Nc1cccc(-c2nc3ccccc3s2)c1)C1=COCCO1`?
ugtP null kill: -9.8; Mtb hypoxia rep: 0.9; Bead autofluor: 2213; Sa RN4220 lethal: -1.8; BJeLR viability: 3.8; PrP UTR inh: -14.3; Mtb hypoxia rep growth: 20.9

Results for CC(=O)C1=C(O)C(=O)N(c2nccs2)C1c1ccc(Br)cc1 (stereo not drawn) ?
ugtP null kill: 11.5; Bead autofluor: 4992; Sa RN4220 lethal: 10.5; BJeLR viability: 2.4; PrP UTR inh: -10.5

Results for Cn1c(=O)n(Cc2ccccc2)c(=O)c2c1nc(NCC1CCCO1)n2Cc1ccccc1 (stereo not drawn) ?
ugtP null kill: 4.3; Mtb hypoxia rep: 4.6; Bead autofluor: 24036*; Sa RN4220 lethal: -1.3; BJeLR viability: 7.6; PrP UTR inh: -23.0; Mtb hypoxia rep growth: 2.3

What do the screens show for `CCn1c(=S)sc2c(=O)[nH]c(SCC(=O)Nc3cc(OC)ccc3OC)nc21`?
ugtP null kill: -0.4; Mtb hypoxia rep: 6.8; Bead autofluor: 3763; Sa RN4220 lethal: 4.9; BJeLR viability: -4.9; PrP UTR inh: -17.9; Mtb hypoxia rep growth: 2.4

How did Cc1ccccc1CSc1nnc(NC(=O)Cc2cccs2)s1 do in these assays?
ugtP null kill: -1.2; Mtb hypoxia rep: -0.5; Bead autofluor: 2283; Sa RN4220 lethal: 16.2; BJeLR viability: -3.3; PrP UTR inh: -3.5; Mtb hypoxia rep growth: 4.2

Retrieved by compound from the list above (2):
What do the screens show for `O=C(NCCO)C1(c2ccccc2)CCCC1`?
ugtP null kill: 6.5; Bead autofluor: 2472; Sa RN4220 lethal: 7.6; BJeLR viability: 11.0; PrP UTR inh: -21.6

Results for O=C(CN1C(=O)CCC1=O)NC(=O)NC1CCCC1 ?
ugtP null kill: 5.3; Mtb hypoxia rep: 14.7; Bead autofluor: 5826; Sa RN4220 lethal: 3.3; BJeLR viability: -4.8; PrP UTR inh: -4.6; Mtb hypoxia rep growth: 8.8

Carrying on:
What do the screens show for `CCC(=O)N1CCN(c2ccc(NC(=O)c3ccccc3)cc2)CC1`?
ugtP null kill: 3.4; Mtb hypoxia rep: 1.3; Bead autofluor: 2630; Sa RN4220 lethal: 5.5; BJeLR viability: -5.2; PrP UTR inh: -15.8; Mtb hypoxia rep growth: 0.6

What do the screens show for `CCOC(=O)C1CCCN(Cc2cccs2)C1` (stereo not drawn)?
ugtP null kill: 14.6; Mtb hypoxia rep: -0.5; Bead autofluor: 11240; Sa RN4220 lethal: 7.6; BJeLR viability: -0.9; PrP UTR inh: -0.9; Mtb hypoxia rep growth: 0.0

What do the screens show for `O=C1CCC(C(=O)OCc2cc(Cl)ccc2OC(F)F)N1` (stereo not drawn)?
ugtP null kill: 1.1; Bead autofluor: 4748; Sa RN4220 lethal: 2.1; BJeLR viability: 6.7; PrP UTR inh: -1.2

What do the screens show for `O=S(=O)(Nc1ccc(Cl)cc1NS(=O)(=O)c1ccccc1)c1ccccc1`?
ugtP null kill: -3.6; Mtb hypoxia rep: 7.6; Bead autofluor: 3819; Sa RN4220 lethal: 1.6; PrP UTR inh: 1.0; Mtb hypoxia rep growth: 16.3

How did CCn1c(C)cc(C=C2C(=O)c3ccccc3C2=O)c1C do in these assays?
ugtP null kill: -17.5; Mtb hypoxia rep: 5.5; Bead autofluor: 2287; Sa RN4220 lethal: 2.3; BJeLR viability: 0.6; PrP UTR inh: -65.7; Mtb hypoxia rep growth: 1.1

What do the screens show for `O=C(NC(=S)N1CCN(c2ccc([N+](=O)[O-])cc2Cl)CC1)c1ccco1`?
ugtP null kill: 0.1; Mtb hypoxia rep: -1.3; Bead autofluor: 9123; Sa RN4220 lethal: -0.5; BJeLR viability: -0.6; PrP UTR inh: -9.0; Mtb hypoxia rep growth: 1.5

What do the screens show for `Brc1ccc(C2NCCS2)cc1` (stereo not drawn)?
ugtP null kill: 3.5; Mtb hypoxia rep: 4.4; Bead autofluor: 4254; Sa RN4220 lethal: 3.6; PrP UTR inh: -14.8; Mtb hypoxia rep growth: 16.3

How did CC(=O)c1sc(NC(=O)c2cccc(N3C(=O)CCC3=O)c2)nc1-c1ccccc1 do in these assays?
ugtP null kill: -1.4; Mtb hypoxia rep: 4.5; Bead autofluor: 5247; Sa RN4220 lethal: 2.8; BJeLR viability: -2.0; PrP UTR inh: -9.0; Mtb hypoxia rep growth: -1.0

What do the screens show for `COc1ccc(C(=O)NN=Cc2ccccc2C(=O)O)cc1OC`?
ugtP null kill: 0.0; Mtb hypoxia rep: -3.4; Sa RN4220 lethal: 8.1; Mtb hypoxia rep growth: -3.6

How did Cc1ccc(NC(=O)c2cccc(S(=O)(=O)N(C)C3CCCCC3)c2)nc1 do in these assays?
ugtP null kill: -11.3; Mtb hypoxia rep: -3.2; Bead autofluor: 6145; Sa RN4220 lethal: -2.3; BJeLR viability: -8.2; PrP UTR inh: -25.3; Mtb hypoxia rep growth: 6.4

What do the screens show for `COc1cc(C(=O)NCc2nnc(SCC(=O)NCc3ccco3)o2)cc(OC)c1OC`?
ugtP null kill: 2.2; Mtb hypoxia rep: 0.2; Bead autofluor: 5490; Sa RN4220 lethal: -0.1; BJeLR viability: 5.6; PrP UTR inh: 4.1; Mtb hypoxia rep growth: -3.6

What do the screens show for `CCOc1cc(C=NNc2cc(C)nc(-n3nc(C)cc3C)n2)ccc1O`?
ugtP null kill: 8.8; Mtb hypoxia rep: 39.4*; Sa RN4220 lethal: -13.7; Mtb hypoxia rep growth: 16.8*

Among those listed so far, these have two or more sulfur atoms:
What do the screens show for `CCn1c(=S)sc2c(=O)[nH]c(SCC(=O)Nc3cc(OC)ccc3OC)nc21`?
ugtP null kill: -0.4; Mtb hypoxia rep: 6.8; Bead autofluor: 3763; Sa RN4220 lethal: 4.9; BJeLR viability: -4.9; PrP UTR inh: -17.9; Mtb hypoxia rep growth: 2.4

How did Cc1ccccc1CSc1nnc(NC(=O)Cc2cccs2)s1 do in these assays?
ugtP null kill: -1.2; Mtb hypoxia rep: -0.5; Bead autofluor: 2283; Sa RN4220 lethal: 16.2; BJeLR viability: -3.3; PrP UTR inh: -3.5; Mtb hypoxia rep growth: 4.2

What do the screens show for `O=S(=O)(Nc1ccc(Cl)cc1NS(=O)(=O)c1ccccc1)c1ccccc1`?
ugtP null kill: -3.6; Mtb hypoxia rep: 7.6; Bead autofluor: 3819; Sa RN4220 lethal: 1.6; PrP UTR inh: 1.0; Mtb hypoxia rep growth: 16.3

Continued.
How did CC1CCCC(C)N1C(=O)CSc1nnnn1-c1cccc2c1CCCC2 (stereo not drawn) do in these assays?
ugtP null kill: -0.8; Bead autofluor: 5114; Sa RN4220 lethal: 0.2; BJeLR viability: 6.2; PrP UTR inh: -6.3

Results for CCOC(=O)c1nc(NCc2ccccc2)c2ccccc2n1 ?
ugtP null kill: 4.6; Mtb hypoxia rep: 17.5; Bead autofluor: 5074; Sa RN4220 lethal: 6.2; BJeLR viability: 3.5; PrP UTR inh: -51.1; Mtb hypoxia rep growth: 7.9

What do the screens show for `CCS(=O)(=O)c1nc(S(=O)(=O)c2ccc(Cl)cc2)c(NCCOC)s1`?
ugtP null kill: 2.3; Mtb hypoxia rep: -1.0; Bead autofluor: 4212; Sa RN4220 lethal: 0.5; BJeLR viability: 0.7; PrP UTR inh: -10.7; Mtb hypoxia rep growth: 9.8

How did O=C(Cc1ccccc1[N+](=O)[O-])NNC(=O)Nc1ccc2c(c1)OCO2 do in these assays?
ugtP null kill: 3.1; Mtb hypoxia rep: 9.9; Bead autofluor: 6237; Sa RN4220 lethal: -0.3; BJeLR viability: 6.0; PrP UTR inh: -8.7; Mtb hypoxia rep growth: 13.6

What do the screens show for `COc1ccc(NC(=S)Nc2ccccc2Cl)cn1`?
ugtP null kill: 3.0; Mtb hypoxia rep: 5.6; Bead autofluor: 4195; Sa RN4220 lethal: 0.9; BJeLR viability: 25.9; PrP UTR inh: -37.9; Mtb hypoxia rep growth: -4.5

How did CC(C)(C)c1ccc2c(c1)C(=O)c1ccccc1C2=O do in these assays?
ugtP null kill: 36.9; Mtb hypoxia rep: -3.5; Bead autofluor: 2039; Sa RN4220 lethal: 5.6; BJeLR viability: 1.4; PrP UTR inh: -99.3; Mtb hypoxia rep growth: -5.0

Results for NC(=O)CSP(=O)(c1ccccc1)c1ccccc1 ?
ugtP null kill: 13.1; Mtb hypoxia rep: 4.8; Bead autofluor: 9737; Sa RN4220 lethal: -0.1; PrP UTR inh: -16.8; Mtb hypoxia rep growth: 10.4

Results for Cc1c(Cl)cccc1NC(=O)CC1SC(=NCC2CCCO2)NC1=O (stereo not drawn) ?
ugtP null kill: 6.2; Mtb hypoxia rep: -0.3; Bead autofluor: 2467; Sa RN4220 lethal: 3.3; BJeLR viability: 7.1; PrP UTR inh: -32.7; Mtb hypoxia rep growth: 4.5

How did Cc1cc(-c2nc3ncccc3o2)ccc1NC(=O)CC(C)C do in these assays?
ugtP null kill: 8.1; Mtb hypoxia rep: 2.8; Bead autofluor: 4288; Sa RN4220 lethal: 4.2; BJeLR viability: 4.3; PrP UTR inh: -26.8; Mtb hypoxia rep growth: 4.7

Results for O=C(CN1CCOCC1)NN=Cc1ccc(-c2ccc(C(=O)O)cc2)o1 ?
ugtP null kill: -1.9; Mtb hypoxia rep: 12.3; Sa RN4220 lethal: 5.2; Mtb hypoxia rep growth: 2.1

How did CCOc1ccc(C(=O)NC2CCN(C(=S)Nc3ccccc3C)CC2)cc1 do in these assays?
ugtP null kill: 9.2; Mtb hypoxia rep: 4.6; Bead autofluor: 4320; Sa RN4220 lethal: 3.3; BJeLR viability: -6.5; PrP UTR inh: -0.1; Mtb hypoxia rep growth: -0.2

How did COc1ccc(CNC(=O)C2(CC3CC(c4ccccc4)=NO3)CCN(C(=O)CCCCCBr)CC2)cc1 (stereo not drawn) do in these assays?
ugtP null kill: -0.6; Mtb hypoxia rep: 1.7; Bead autofluor: 4461; Sa RN4220 lethal: 0.8; BJeLR viability: -7.5; PrP UTR inh: -2.7; Mtb hypoxia rep growth: 14.2

How did Cc1cc(C)c(S(=O)(=O)NCc2ccc3c(c2)cc(C)n3C)c(C)c1 do in these assays?
ugtP null kill: -21.3; Mtb hypoxia rep: -1.0; Bead autofluor: 1929; Sa RN4220 lethal: 19.8; BJeLR viability: -6.2; PrP UTR inh: 4.0; Mtb hypoxia rep growth: 8.9

Results for Cc1ccccc1N1C(=O)CC(c2c[nH]c3ccccc23)C1=O (stereo not drawn) ?
ugtP null kill: 9.0; Mtb hypoxia rep: 8.2; Bead autofluor: 4142; Sa RN4220 lethal: 3.1; BJeLR viability: -3.3; PrP UTR inh: -27.7; Mtb hypoxia rep growth: 5.0

High-throughput results (PubChem)
